Source: PubChem (National Center for Advancing Translational Sciences (NCATS))
miR-21 reporter – raises the signal of a miR-21 reporter. AID 2288. Potency, µM (top dose mostly 38.3 µM), without a hit: at the top dose reporter change, positive = more light. 340,000 tested, under 10 active. HeLa miR-21 FLuc reporter, luciferase, 48 h; active = well fitted rising curve with a large enough effect; inconclusive = small, poorly fitted or top-dose-only effect; inactive = no such curve, though single readings can be large or run the other way;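 note: % of control where 0% means no effect; miR-21 action dims this reporter so a rising signal means less miR-21 action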
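Using DMEM plus 10% FBS, HeLa miR-21-FLuc cells are incubated with test compounds (final up to about 40uM) for 48 hours; firefly luciferase signal is then imaged following reagent-mediated lysis.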
GLA inh pH 4.5 – inhibitors of human alpha-galactosidase A at pH 4.5. 230,000 tested, under 10 active. activity change, negative = inhibition, % at 105 µM. AID 1467. purified enzyme, 4-MU-alpha-Gal fluorescence, pH 4.5; inconclusive = small, poorly fitted or top-dose-only inhibition, or a rising curve; inactive = flat fitted curve, though single readings scatter; no compound was filed as active;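 note: 0% = full activity with enzyme and -100% = basal without enzyme; dose as in the result columns while the protocol names 77 µM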
Rango complex inh – prevents formation of the Rango-importin beta complex. Q14974. Rango CFP/YFP FRET sensor + importin beta, 45 min. Potency, µM (highest dose often 92.2 µM), for inactives: top-dose inhibition of complex formation. 340,000 compounds, 0.031% hits. AID 540263; active = rising FRET ratio curve, often small or poorly fitted; inconclusive = mostly compound fluorescence or quenching in the first reads; inactive = flat curves in all reads;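 note: potency is the fitted concentration of half-maximal effect; 0% = DMSO wells and 100% = buffer wells lacking importin beta; nearly all actives have a fitted effect of over 15% in size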
Target sequence (Q14974 whole entry, looked up): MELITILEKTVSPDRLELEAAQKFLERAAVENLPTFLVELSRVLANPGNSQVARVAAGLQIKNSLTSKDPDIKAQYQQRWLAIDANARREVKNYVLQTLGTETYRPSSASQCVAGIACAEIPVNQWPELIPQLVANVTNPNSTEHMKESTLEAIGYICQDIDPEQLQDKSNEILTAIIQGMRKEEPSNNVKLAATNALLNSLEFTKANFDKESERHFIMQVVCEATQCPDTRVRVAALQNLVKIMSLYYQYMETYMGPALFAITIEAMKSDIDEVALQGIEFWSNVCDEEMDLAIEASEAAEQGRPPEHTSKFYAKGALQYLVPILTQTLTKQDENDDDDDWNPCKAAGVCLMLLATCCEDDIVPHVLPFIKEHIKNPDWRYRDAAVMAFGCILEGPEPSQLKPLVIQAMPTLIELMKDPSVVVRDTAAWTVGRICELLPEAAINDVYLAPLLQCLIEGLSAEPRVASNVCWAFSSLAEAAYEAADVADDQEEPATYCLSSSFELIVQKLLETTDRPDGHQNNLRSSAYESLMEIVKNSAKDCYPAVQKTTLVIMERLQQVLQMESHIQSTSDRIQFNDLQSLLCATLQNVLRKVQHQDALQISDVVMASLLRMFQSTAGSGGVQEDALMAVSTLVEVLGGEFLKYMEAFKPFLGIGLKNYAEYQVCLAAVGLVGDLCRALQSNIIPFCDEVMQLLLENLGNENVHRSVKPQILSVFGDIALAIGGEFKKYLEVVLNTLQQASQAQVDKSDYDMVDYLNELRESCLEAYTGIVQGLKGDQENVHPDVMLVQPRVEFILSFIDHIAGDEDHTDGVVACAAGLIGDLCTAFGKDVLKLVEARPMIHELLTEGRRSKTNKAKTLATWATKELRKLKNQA
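FRET biosensor Rango (snurportin 1 IBB between N-terminal EYFP and C-terminal Cerulean), 50 nM in PBS/1 mM DTT/0.02% Tween-20/0.1% BSA, preincubated 5 min RT with compound; 0.125 microM importin beta added, 45 min RT, CFP/YFP FRET ratio read.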
Rango dissoc inh – prevents RanGTP from dissociating the Rango-importin beta complex | O95149+P62826 | Biochemical FRET Rango-importin beta, RanGTP-induced dissociation | Potency, µM (top dose mostly 46.1 µM), for inactives: at the top dose activity change, negative = inhibition | 340,000 compounds, 0.071% hits; active means falling FRET ratio curve, often poorly fitted, with flat reads before Ran was added; inconclusive means other falling curves, or compound fluorescence or quenching; inactive means flat or rising ratio curve;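 note: potency is the fitted concentration of half-maximal effect; % of control where 0% means no effect; nearly all actives have a fitted effect of over 45% in size; -100% = wells without RanGTP and RCC1; the record marks most hits as doubtful in a second field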
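Rango (0.1 uM)–importin beta (0.25 uM) complex; RanGTP-RCC1 trigger; 45 min RT; CFP/YFP FRET read.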
Starred values were filed as active, the others as inactive; ? = inconclusive; · = not tested or not shown; [ ] = dose if it differs, or a comment. Not all compounds are listed (hit frequency here may not be typical).

#1 Cc1ccc(C)c(NS(=O)(=O)c2ccc(NC(=O)c3ccco3)cc2)c1
#2 O=C(Nc1ccc(F)cc1)c1sc(Cl)nc1-c1ccccc1
#3 CCOC(=O)CCCNC(=O)COC(=O)c1ccc(O)cc1
#4 COc1cc(C(=O)NCC(=O)N/N=C/c2cccc(OC(=O)c3ccco3)c2)cc(OC)c1OC
#5 COc1ccc(/C=C/C(=O)NC2CCCCCCC2)cc1S(=O)(=O)N1CCOCC1
#6 O=C(CC1C(=O)NCCN1Cc1cccc(C(F)(F)F)c1)NCCc1cnccn1 (stereo not given)
#7 O=C(NC1CCS(=O)(=O)C1)c1ccc(Br)o1 (stereo not given)
#8 O=C(NCCC(c1ccccc1)c1ccccc1)c1cccs1
Assay by compound	1	2	3	4	5	6	7	8
miR-21 reporter	15%	-2%	3%	-12%	-16%	1%	-1%	-11%
GLA inh pH 4.5	-5	0	2	-1	-6	·	·	-18
Rango complex inh	-1.2%	0.6%	-0.2%	-2.3%	3.0%	?	1.3%	-2.2%
Rango dissoc inh	-2%	0%	2%	17%	1%	-14%	1%	-9%

Continued, starting with the last 4 of the part before.
#5 COc1ccc(/C=C/C(=O)NC2CCCCCCC2)cc1S(=O)(=O)N1CCOCC1
#6 O=C(CC1C(=O)NCCN1Cc1cccc(C(F)(F)F)c1)NCCc1cnccn1 (stereo not given)
#7 O=C(NC1CCS(=O)(=O)C1)c1ccc(Br)o1 (stereo not given)
#8 O=C(NCCC(c1ccccc1)c1ccccc1)c1cccs1
#9 CN1CCN(C(=O)C2=C[C@H](c3ccc4c(c3)OCO4)C[C@H](OCCCCO)O2)CC1
#10 Cc1ccc(-c2nnn(CC(=O)N(c3ccccc3F)C(CC(C)C)C(=O)NCC3CCCO3)n2)cc1 (stereo not given)
#11 Cc1cc(=O)[nH]c(Nc2ccc(C(=O)OC(C)C)cc2)n1
#12 O=C(O)CCCN1C(=O)C2C3c4ccccc4C(c4ccccc43)[C@@H]2C1=O (stereo not given in full)
#13 CCSc1c([N+](=O)[O-])c(=O)n(-c2ccccc2)c2ccccc12
#14 Cc1cccnc1NC(=S)Nc1ccc(F)cc1F
#15 O=C(c1ccco1)N1CCN(Cc2ccc(Br)cc2)CC1
#16 O=C(Nc1cc2c3c(c1)CC(=O)N3CCC2)c1ccccc1Br
Assay by compound	5	6	7	8	9	10	11	12	13	14	15	16
miR-21 reporter	-16%	1%	-1%	-11%	·	-4%	-8%	-1%	·	-34%	-1%	·
GLA inh pH 4.5	-6	·	·	-18	·	-6	2	·	·	6	·	·
Rango complex inh	3.0%	?	1.3%	-2.2%	6.7%	-0.7%	0.8%	1.6%	1.0%	1.0%	-4.8%	-0.6%
Rango dissoc inh	1%	-14%	1%	-9%	-7%	4%	-4%	52%	12%	0%	-5%	8%

#17 Cc1ccsc1C(=O)OC(C)C(=O)Nc1ccc(Cl)cn1 (stereo not given)
#18 O=C(Nc1ccc2c(c1)OCO2)c1cc2nc(C3CC3)cc(C(F)(F)F)n2n1
#19 CCOc1nc(-c2ccccc2)ccc1-c1noc(-c2ccncc2)n1
#20 Cc1cccc(N(C(=O)c2snc(C(N)=O)c2N)C(C(=O)NC2CCCC2)c2ccc(C)o2)c1 (stereo not given)
#21 CCS(=O)(=O)c1nc(S(=O)(=O)c2ccc(Cl)cc2)c(N2CCc3ccccc3C2)s1
#22 COc1cccc(N=Nc2c(=O)[nH]n3c(=O)c4c([nH]c23)CCC4)c1
#23 CN1CCN(C(=O)c2cn(C)c3ccc(S(=O)(=O)N(C)C4CCCCC4)cc3c2=O)CC1
#24 O=C(Cc1ccc(S(=O)(=O)N2CCCC2)s1)N1CCN(c2ccc(F)cc2)CC1
Assay by compound	17	18	19	20	21	22	23	24
miR-21 reporter	·	-10%	0%	-6%	-8%	18%	-8%	3%
GLA inh pH 4.5	·	-9	5	·	-11	-3	3	-3
Rango complex inh	-3.8%	-0.6%	-3.3%	7.5%	7.4%	-1.2%	0.3%	4.8%
Rango dissoc inh	0%	-12%	-4%	0%	11%	-4%	12%	1%

#25 Cc1cc(/C=C2/NC(=O)N(c3ccccc3)C2=O)c(C)n1C(C)C
#26 COc1ccc(-c2c(NC(=O)c3ccco3)oc3ccccc3c2=O)cc1
#27 CC(C)(O)C#Cc1ncc(C(F)(F)F)cc1Cl
#28 COc1ccc(CCNC(=O)CSCc2n[nH]c(=O)[nH]2)cc1OC
#29 CC1CCCN(C(=O)COC(=O)C2CCN(S(=O)(=O)c3c(Cl)cccc3Cl)CC2)C1 (stereo not given)
#30 Cc1ccc(NC(=S)N(Cc2ccccc2)C(C)C)cc1
#31 O=C(COC(=O)C1=Cc2ccccc2OC1)NC1CCCC1
#32 CCN(CC(=O)NCc1ccc(Cl)cc1)C(=O)c1sccc1C
Assay by compound	25	26	27	28	29	30	31	32
miR-21 reporter	-54%	-10%	-3%	-5%	·	-6%	-6%	·
GLA inh pH 4.5	-2	·	6	-6	·	-1	-1	·
Rango complex inh	?	-1.0%	0.0%	3.8%	5.7%	0.3%	-1.1%	2.7%
Rango dissoc inh	-25%	-1%	16%	-1%	12%	10%	-9%	0%

#33 CCN(CC)c1ccc(/C=N/NC(=O)C2CC2)cc1
#34 O=C1OC(Nc2ccc(Cl)cn2)c2ccccc21 (stereo not given)
#35 CC(C)(C)C(=O)COC(=O)c1cc2ccccc2cc1O
#36 Cc1sc2ncnc(N/N=C/c3ccc(O)cc3)c2c1C
#37 O=C(CN(C1CCCCC1)C1CCCCC1)N1CCc2ccccc2C1
#38 O=C(c1cc(F)ccc1F)C1CCCN(C(=O)c2ccc3nccnc3c2)C1 (stereo not given)
#39 COc1cc(C2C(C#N)=C(N)Oc3cc(N)ccc32)cc(OC)c1OC (stereo not given)
#40 O=C(NCC(=O)N1CCOCC1)c1ccccc1
Assay by compound	33	34	35	36	37	38	39	40
miR-21 reporter	-8%	-10%	-19%	-24%	23%	-13%	23%	-36%
GLA inh pH 4.5	·	4	0	-3	-10	·	1	·
Rango complex inh	-0.4%	-2.5%	2.6%	-1.0%	0.7%	-2.3%	?	-0.1%
Rango dissoc inh	-13%	15%	0%	14%	-5%	1%	?	0%

Among those listed so far, two have two or more sulfur atoms:
#21 CCS(=O)(=O)c1nc(S(=O)(=O)c2ccc(Cl)cc2)c(N2CCc3ccccc3C2)s1
#24 O=C(Cc1ccc(S(=O)(=O)N2CCCC2)s1)N1CCN(c2ccc(F)cc2)CC1
Assay by compound	21	24
miR-21 reporter	-8%	3%
GLA inh pH 4.5	-11	-3
Rango complex inh	7.4%	4.8%
Rango dissoc inh	11%	1%

More entries follow.
#41 Cc1ccc(CN2C(=O)C(Cc3ccccc3)Nc3ncnc(N4CCCCC4)c32)cc1 (stereo not given)
#42 O=C(NC1CCC(O)CC1)c1ccc(S(=O)(=O)NCc2ccco2)cc1 (stereo not given)
#43 O=C(NCc1ccco1)/C(=C/c1ccco1)NC(=O)c1ccccc1
#44 O=C1CSC(c2cccc([N+](=O)[O-])c2)N1c1ccc(O)cc1 (stereo not given)
#45 O=C(CCn1cnc(-c2ccccc2)c1-c1ccccc1)N/N=C/c1ccccc1O
#46 COc1ccc(CCC(=O)N2CCN(c3ccc([N+](=O)[O-])cc3)CC2)cc1OC
#47 CCO[C@@H]1OC(C(=O)O)=C[C@H](c2ccccc2)[C@H]1CCCO
#48 COc1ccc(NCc2nnc(SCC(=O)c3ccc(OC)cc3)n2C)cc1
Assay by compound	41	42	43	44	45	46	47	48
miR-21 reporter	·	1%	-2%	-8%	18%	9%	·	3%
GLA inh pH 4.5	·	0	·	0[21.1 µM]	3	·	·	2
Rango complex inh	?	-1.5%	-0.1%	-7.0%	-0.5%	2.5%	-4.2%	0.3%
Rango dissoc inh	-19%	2%	-5%	-3%	-15%	3%	-3%	5%

#49 Cc1ccc(Nc2nc(N)nc(CC#N)n2)cc1
#50 CN(C(=O)c1ccc(OC2CCN(S(=O)(=O)N(C)C)CC2)cc1)C1CCCCC1
#51 O=C(CN1C(=O)C2(OCCCO2)c2ccccc21)NCc1ccccc1
#52 Cc1cc(F)c(F)c(C(=O)N2CCOCC2)c1
#53 CC(C)c1ccc(NC(=O)CSc2nc3ccsc3c(=O)n2Cc2ccc(C(=O)O)cc2)cc1
#54 COC(=O)c1nn(-c2cccc(Cl)c2)cc(OC)c1=O
#55 O=C(NCCN1CCOCC1)/C(=C/c1ccco1)NC(=O)c1ccccc1
#56 COc1cc(C(=O)NC(C)c2cccc3ccccc23)cc(OC)c1OC (stereo not given)
Assay by compound	49	50	51	52	53	54	55	56
miR-21 reporter	-54%	-12%	-7%	-5%	-6%	0%	-3%	1%
GLA inh pH 4.5	5	-6	-6	-1	·	·	·	·
Rango complex inh	-3.2%	-2.2%	-5.1%	2.2%	0.2%	0.4%	-0.9%	3.9%
Rango dissoc inh	-6%	-9%	-2%	-7%	-5%	-6%	-11%	8%

#57 Cc1ccc(S(=O)(=O)N(Cc2ccccc2)c2ccccc2C(=O)Nc2ccccc2C(=O)NCc2ccco2)cc1
#58 C=CCN(C(=O)CNC(=O)c1ccco1)C(C(=O)NC1CCCC1)c1ccc(OC)cc1 (stereo not given)
#59 Cc1ccc(C(=O)NC2CCc3ccccc3C2=O)cc1 (stereo not given)
#60 Cc1nn(C)c(Cl)c1CN1CCC(CO)(CCOc2ccccc2)CC1
#61 O=c1[nH]c(N2CCc3ccccc3C2)nc2c1CCC2
#62 CC(SC1=NCCN1S(=O)(=O)c1ccccc1)c1ccccc1 (stereo not given)
#63 S=C(Nc1ccccc1)N1CCN(C/C=C/c2ccccc2)CC1
#64 C/C(=N\N=C1\NC(=O)C(CC(=O)Nc2ccc(C)c(Cl)c2)S1)C(C)C (stereo not given)
Assay by compound	57	58	59	60	61	62	63	64
miR-21 reporter	-2%	1%	-47%	0%	1%	-3%	-1%	-4%
GLA inh pH 4.5	-13	·	-2	7	9	·	-2	-3
Rango complex inh	-4.0%	-1.3%	-4.0%	2.0%	1.9%	7.2%	-7.4%	-2.8%
Rango dissoc inh	24%	2%	-16%	-3%	18%	-4%	-1%	43%

#65 O=C(c1ccc(Cl)c(S(=O)(=O)Nc2ccc(F)cc2)c1)N1CCN(c2ccccn2)CC1
#66 O=c1cc(-c2ccc(OCc3ccccc3)cc2)oc2cc(OCc3ccccc3)cc(OCc3ccccc3)c12
#67 Cc1ccc([N+](=O)[O-])cc1S(=O)(=O)Nc1ccc(C(=O)NCc2ccccn2)cc1
#68 CCOc1ncccc1C(=O)N1CCN(C(c2ccccc2)c2ccccc2)CC1
#69 O=C(O)/C=C1\NC(=O)c2ccccc21
#70 CCOc1ccc(CCNC(=O)CCCN2C(=O)c3ccccc3C2=O)cc1OCC
#71 COc1ccc(S(=O)(=O)Cc2ccc(C(=O)NC3CCCC3)o2)cc1
#72 COc1ccc(N(CC(=O)NC2CCCC2)C(=O)Cn2nnc(-c3ccc(F)cc3)n2)cc1OC
Assay by compound	65	66	67	68	69	70	71	72
miR-21 reporter	5%	·	·	12%	1%	-2%	0%	3%
GLA inh pH 4.5	5	·	·	1	1	4	-1	-5
Rango complex inh	3.1%	?	?	-3.6%	-1.9%	-0.6%	0.7%	0.5%
Rango dissoc inh	-6%	0%	22%	-13%	-4%	7%	-24%	4%

#73 O=C(O)C1CSCN1S(=O)(=O)c1cccc2nsnc12 (stereo not given)
#74 CC(C)(C)CC(C)(C)NC(=O)c1ccc2snnc2c1
#75 COC(=O)c1[nH]c2ccc(Cl)cc2c1NC(=O)Oc1ccccc1
#76 COc1ccc(C(=O)NC2CC(C)(C)Cc3c2cnn3-c2ccccc2)cc1OC (stereo not given)
#77 Cc1nn(C)cc1C(C)NC(=O)c1cc(COc2cccc3cnccc23)on1 (stereo not given)
Assay by compound	73	74	75	76	77
miR-21 reporter	-4%	-10%	-33%	4%	20%
GLA inh pH 4.5	-7	5	5	·	·
Rango complex inh	-5.1%	-0.1%	?	2.6%	-0.8%
Rango dissoc inh	-6%	3%	11%	2%	-16%
